Screening data deposited in PubChem by National Center for Advancing Translational Sciences (NCATS).
VACV mCherry inh – qHTS for Stage-Specific Inhibitors of Vaccinia Orthopoxvirus: mCherry Reporter Primary qHTS; Potency, µM (titrated, usually from 36.5 µM), for inactives: top-dose activity change, negative = inhibition, hits mostly inhibitors; Vaccinia virus mCherry reporter infection, fluorescence; about a quarter of the inactives have no number; 0.63% of 310,000 active; active = well fitted inhibition curve with a large enough effect; inconclusive = small, poorly fitted or top-dose-only effect; inactive = no such curve, though single readings can be large or run the other way; tested in A549 cells; also: nearly all actives have a fitted effect of over 35% in size; inactives centre near -10
VACV Venus inh – qHTS for Stage-Specific Inhibitors of Vaccinia Orthopoxvirus: Venus Reporter Primary qHTS; Vaccinia virus Venus reporter expression, fluorescence; Potency, µM (series often up to 36.5 µM), for inactives: top-dose activity change, negative = inhibition, actives largely listed as inhibitors; 0.46% of 330,000 active; active means well fitted inhibition curve with a large enough effect; inconclusive means small, poorly fitted or top-dose-only effect; inactive means no such curve, though single readings can be large or run the other way; tested in A549 cells; also: nearly all actives have a fitted effect of over 30% in size; inactives centre near -10
Starred values were filed as active, the others as inactive; i = inactive; ? = inconclusive; . = no result given; & = joins results of further samples; [ ] = dose if it differs, or a comment. % is scaled to controls: 0 for no effect and ±100 for the full control effect; potency is read from the fitted curve at half-maximal effect.

SMILES	VACV mCherry inh	VACV Venus inh
COc1ccc(N(C(=O)c2ccco2)C(C(=O)NC2CCCC2)c2cccnc2)c(OC)c1 (stereo unspecified)	i	-8%
CC(Nc1ccc(-c2nc(-c3ccccn3)no2)cc1[N+](=O)[O-])c1ccccc1 (stereo unspecified)	-1%	-14%
COc1ccc(NC(=O)CSCc2ccc([N+](=O)[O-])cc2)cc1OC	-12%	-12%
COc1cccc(/C=N/n2c(=O)[nH]c3ccccc32)c1OC	0%	-14%
CC(=O)Nc1ccc(-c2csc(Nc3cccc(C)n3)n2)cc1	?	-18%
CCOc1ccc(C(=O)CCC(=O)Nc2ccc(C)c(S(=O)(=O)N3CCCCC3)c2)cc1	?	-25%
O=C(NCc1ccccc1Cl)c1ccc(NC(=O)c2nsc3ccccc23)cc1	-8%	-12%
O=C(O)c1ccc(CSc2nc(-c3ccccc3)cc(C(F)(F)F)n2)cc1	-14%	-9%
Cc1ccc(C(=O)C2=C(O)C(=O)N(CCCn3ccnc3)C2c2ccc(OC(C)C)cc2)o1 (stereo unspecified)	-8%	-11%
CCC(=O)NCCc1nc2cc(NC(=O)c3cccs3)ccc2n1C	-11%	-3%
COc1ccc(-c2c3c(nc4sc(C(=O)Nc5ccc(F)cc5)c(N)c24)CC(C)(C)CC3=O)cc1	-7%	6%
O=C(Nc1cc(Cl)cc(Cl)c1)c1ccc(F)c(S(=O)(=O)N2CCN(c3ccccc3F)CC2)c1	-16%	-17%
COc1ccc(CCCNC(=O)C2(C)Cc3c(-c4cccc(C(N)=O)c4)ccnc3O2)cc1 (stereo unspecified)	-26%	?
Cc1cc(C)cc(NC(=O)CCNC(=O)c2ccc([N+](=O)[O-])cc2)c1	-18%	-13%
C=CCCC(=O)N1C[C@@H](CO)[C@@H](NC)C[C@H]1c1ccccc1Br	9%	-2%
CCC(=O)N1CCc2cc(Br)cc(S(=O)(=O)N3CCCC(C(=O)Nc4cc(C)ccc4OC)C3)c21 (stereo unspecified)	i	-2%
O=C(Nc1ccc(F)cc1F)c1csc(-c2ccccc2)n1	-18%	-10%
Cc1nn(C(C)C)c(C)c1CN1CCCC(CCC(=O)NCc2ccccc2F)C1 (stereo unspecified)	-3%	-6%
O=S(=O)(c1cccnc1)N1CCN(c2nc(-c3cccs3)nc3ccccc23)CC1	-26%	-18%
CCC1CCCCN1C(=O)Cn1c(=O)n(CCCCCC(=O)NCc2ccccc2)c(=O)c2sccc21 (stereo unspecified)	-13%	-5%
O=C(CCl)Nc1nc(-c2ccco2)c(-c2ccco2)s1	-17%	-14%
COc1ccc(N2C(=O)C(Cl)=C(Nc3c(C)n(C)n(-c4ccccc4)c3=O)C2=O)cc1	?	-9%
CCN1C(=O)[C@H]2[C@@H](c3ccc(C)cc3)N3C(=O)N(c4cccc(Br)c4)C(=O)[C@@]3(Cc3ccccc3)[C@H]2C1=O	i	-23%
Cc1ccc2c(c1)-c1onc(C(=O)N(C)c3cccc(C(F)(F)F)c3)c1CO2	-15%	-10%
[O-][n+]1ccc(C2CC2)cc1	-16%	-5%

(list continues)
SMILES	VACV mCherry inh	VACV Venus inh
Cc1cccc(-c2cc3nc(C)cc(=O)n3[nH]2)c1	-24%	-16%
CC1CC(C)CN(C(=O)CSc2nnc3ccccn23)C1 (stereo unspecified)	-15%	-24%
CC(CCc1ccccc1)NC(=O)CCc1cn(C)c2ccccc12 (stereo unspecified)	-4%	-9%
CC1CC(C)CN(C(=O)CCCNC(=O)c2ccc(Cl)cc2)C1 (stereo unspecified)	-21%	-19%
O=c1oc2cc(O)ccc2c2ccccc12	.	-19%
C/C(=N\NC(=S)NC(C)C)c1ccco1	-5%	-14%
COc1ccccc1CN(C)C(=O)c1ccccc1Sc1ccccc1C#N	-26%	-16%
Cc1c(CC(=O)O)c(=O)oc2cc(OCc3nn[nH]n3)ccc12	-12%	-7%
COc1ccc(NS(=O)(=O)c2nnc(NC(=O)c3ccccc3F)s2)cc1	?	-26%&-6%
CCCCOC(=O)/C(=C/c1cn(C)c2ccccc12)NC(=O)c1ccc(OC)cc1	-20%	-7%
CCN(CC)CCC(C)OC(c1ccccc1)c1ccccc1 (stereo unspecified)	i	-18%
O=C1NN(c2ccccc2)C(=O)/C1=C\c1ccc2c(c1)OCO2	-24%	-8%
CCCCS(=O)c1snnc1C (stereo unspecified)	0%	3%
O=C(Cc1c(F)cccc1Cl)OCC(=O)c1ccc[nH]1	i	-12%
COC(=O)[C@H](CC(C)C)N1Cc2cc(OC)cc(OC)c2-c2ccccc2S1(=O)=O	?	?
CCOc1ccc2nc(SCC(=O)Nc3ccc4[nH]c(=O)[nH]c4c3)[nH]c2c1	-8%	-11%
NNC(=O)c1oc2nc(-c3ccc(Cl)cc3)cc(-c3ccccc3)c2c1N	-20%	-10%
CC1(CCC(=O)O)C(=O)CCC2C1CCC1(C)C2CCC1(C)O (stereo unspecified)	-12%	-1%
Cc1ccc2occ(CC(=O)Nc3ccc(S(N)(=O)=O)cc3)c2c1	-7%	-4%
CSCCC(C(=O)Nc1c(C)cccc1C)N1CCN(c2ccc(C(F)(F)F)cn2)CC1 (stereo unspecified)	i	5%
CCOC(=O)c1cc(-c2ccc(N3CCOCC3)cc2)nn1-c1ccc(F)cc1F	-2%	-10%
CN(C)S(=O)(=O)c1ccc2c(c1)nc(CCC(=O)O)n2C	i	-14%
CCOc1cc(/C=N/Nc2nc(C)cc(=O)[nH]2)ccc1O	i	-11%
CC(C)(C)NC(=O)COc1coc(CN2CCN(Cc3ccccc3)CC2)cc1=O	-9%	-11%
Nc1ccc(-n2nc(C(F)(F)F)cc2C(F)(F)F)cc1	-11%	-9%

The list continues:
SMILES	VACV mCherry inh	VACV Venus inh
CCN(C(=O)c1c([N+](=O)[O-])cnn1C)c1ccccc1	i	-13%
O=C(Nc1nnc(-c2ccco2)o1)c1ccc(Cl)cc1	-13%	-10%
COc1cc(/C=N/NC(=O)C(=O)NCc2cccnc2)cc(OC)c1OC	-12%	5%
COCc1nnc(NC(=O)c2ccccc2[N+](=O)[O-])s1	-7%	0%
CCOc1ccc(S(=O)(=O)NCCC(=O)NCC(c2cccs2)N(C)C)cc1 (stereo unspecified)	-24%	-14%
COC(=O)/C=C(\C)NC(=O)c1ccc(F)cc1	-14%	-5%
Cc1ccc(CNC(=O)COC(=O)CSc2cc(C)c(Br)cc2C)cc1	-2%	2%
CC1(C)Oc2ccc3ccc(=O)oc3c2[C@@H](O)[C@H]1O	i	-1%
O=C(Nc1nc2ccccc2[nH]1)c1cccc(F)c1	-24%	-11%
c1ccc2c(-c3ccc(OCCN4CCCCC4)cc3)c(-c3ccsc3)sc2c1	?	-29%
O=C1C2CC=C(Cl)CC2C(=O)N1CC1OCCc2ccccc21 (stereo unspecified)	-13%	-9%
COc1cccc(NC(=O)CNC(=O)c2cccs2)c1	-6%	1%
C=CCSc1nc(C)c(CCCC)c(=O)[nH]1	-24%	-17%
C[C@H]1CN([C@@H](C)CO)C(=O)CCCn2cc(nn2)CO[C@@H]1CN(C)C(=O)OCc1ccccc1	8%	-7%
COc1cccc(C(=O)Nc2ccc(C(=O)O)cc2)c1	-15%	-7%
N=c1c(C(=O)NCC2CCCO2)cc2c(=O)n3ccccc3nc2n1Cc1ccc(F)cc1 (stereo unspecified)	-12%[7.34 µM]	-16%[7.34 µM]
Cc1cnnn1-c1ccc(C(=O)CCl)cc1	-3%	-1%
CC1CN(C(=O)CCc2ccccc2)C(C)CN1C(=O)CCc1ccccc1 (stereo unspecified)	.	-10%
CCCCn1nnnc1SCC(=O)NC1CCCCC1	-10%	9%
Cc1nc(NC(=O)CSc2nncs2)c(Cl)cc1Cl	-14%	-13%
CCC(C)[C@H](NC(=O)NCc1ccc(S(N)(=O)=O)cc1)C(=O)OC (stereo partly specified)	i	-13%
COc1cccc(C2C([N+](=O)[O-])=C(N)Oc3c2c(=O)oc2ccccc32)c1 (stereo unspecified)	-2%	-5%
Cc1cc(C)n2nc(N)nc2n1	-16%	-7%
O=C(NN=Cc1ccccc1Cl)c1cccc2ccccc12	i	-1%
COc1cc(NC(=O)Cc2cccs2)cc(OC)c1	-24%	-10%

Some values from the entries so far.
Reading for `CCC(C)[C@H](NC(=O)NCc1ccc(S(N)(=O)=O)cc1)C(=O)OC` (stereo partly specified) under VACV Venus inh: -13%
Reading for `O=C1C2CC=C(Cl)CC2C(=O)N1CC1OCCc2ccccc21` (stereo unspecified) under VACV Venus inh: -9%
Reading for `O=C(NN=Cc1ccccc1Cl)c1cccc2ccccc12` under VACV Venus inh: -1%
Reading for `O=C(Nc1nnc(-c2ccco2)o1)c1ccc(Cl)cc1` under VACV mCherry inh: -13%

The list continues.
SMILES	VACV mCherry inh	VACV Venus inh
COC(=O)c1cc(Br)c(=O)n(CCN2CCCC2)c1	-13%	-6%
CC1(C)OC(=O)N(c2ccccc2)C12C=Cc1c(ccc3ccccc13)O2 (stereo unspecified)	?	-29%
O=C(NC1CCCCC1)c1cccc2c1C(=O)c1ccc(N3CCCC3)cc1S2(=O)=O	?	-9%
Cc1cccc(C)c1NC(=S)NC(=O)c1cccc(Cl)c1	29%	0%
CCC(C(=O)Nc1cc(OC)ccc1OC)n1nc(-c2ccccc2)c2c(c1=O)CCCC2 (stereo unspecified)	-15%	?
CCCCN(CC)C(=O)C1CCC(CNS(=O)(=O)c2cccc3nsnc23)CC1 (stereo unspecified)	-3%	-27%
O=C(Cn1nc(CNc2ccc(Cl)cc2)[n+]2c1CCCCC2)c1ccc(Br)cc1	-6%	2%
COc1ccc(C(=O)Nc2cc3c(cc2N2CCOCC2)n(C)c(=O)n3C)cc1OC	i	-6%
N#CC1=C(SCC(=O)NCc2ccccc2)NC(=O)CC1c1ccco1 (stereo unspecified)	i	-13%
O=C(CC[C@H]1O[C@@H](n2cnc3c(NC(=O)c4ccccc4)ncnc32)[C@H](O)[C@@H]1O)N[C@@H](CO)c1ccccc1	i	4%
CN(C)c1cc[n+](CC[n+]2ccc(N(C)C)cc2)cc1	i	-3%
CN(C)CCCNc1nc2cc(-c3cncnc3)sc2c(=O)n1C	18%	2%
CCCc1nc(N)c(C#N)c(N)c1C#N	-3%[1.46 µM]	-3%
CCCCC[C@@H]1C=C(C(=O)O)[C@H](c2ccc(Br)cc2)N1S(=O)(=O)c1ccc(C)cc1	10%	-9%
CCc1cc(C(=O)c2ccc(OC)cc2)c(NC(=O)CCC(=O)O)s1	i	-2%
O=C1CCCC2=C1C(c1ccccc1)CC(=O)N2c1ccc(F)cc1F (stereo unspecified)	-19%	-15%
CCN(C(=O)CN1C(=O)NC(c2ccccc2)(c2ccccc2)C1=O)c1ccccc1	-22%	-12%
COc1cc(C2C(C#N)=C(N)Oc3cc4c(cc32)OCO4)cc(OC)c1OC (stereo unspecified)	?	?
COc1ncccc1-c1nnn(-c2ccc(C)cc2)n1	-3%	-13%
COc1ccc(C(=O)N2CCN(CCNC(=O)C(=O)Nc3ccc(F)cc3)CC2)cc1OC	i	-12%
CCc1cccc(NC(=O)c2ccc(CNS(=O)(=O)c3ccc4c(c3)C(C)(C)C(=O)N4C)cc2)c1	-17%	-18%
CC(=O)c1cccc(S(=O)(=O)N2CCC(C(=O)NC3CCCC3)CC2)c1	-14%	-13%
O=[N+]([O-])c1ccc(N2CCN(S(=O)(=O)c3cnc[nH]3)CC2)cc1	i	-8%
O=C(c1ccccc1)N1CCOC12CCN(c1ncc(C(F)(F)F)cc1Cl)CC2	.	-23%
CC(=O)C1=C(C)N(CC2CC2)C(=O)N[C@H]1c1ccc(Br)cc1	i	-16%

Overlap with the part before: 5 entries, followed by the next part.
SMILES	VACV mCherry inh	VACV Venus inh
CCc1cccc(NC(=O)c2ccc(CNS(=O)(=O)c3ccc4c(c3)C(C)(C)C(=O)N4C)cc2)c1	-17%	-18%
CC(=O)c1cccc(S(=O)(=O)N2CCC(C(=O)NC3CCCC3)CC2)c1	-14%	-13%
O=[N+]([O-])c1ccc(N2CCN(S(=O)(=O)c3cnc[nH]3)CC2)cc1	i	-8%
O=C(c1ccccc1)N1CCOC12CCN(c1ncc(C(F)(F)F)cc1Cl)CC2	.	-23%
CC(=O)C1=C(C)N(CC2CC2)C(=O)N[C@H]1c1ccc(Br)cc1	i	-16%
CCCCNC(=O)c1ccc2c(c1)ncn2C1CCCCC1	.	-20%
COc1ccc([C@H]2C[C@@H](O)C[C@@H](CCn3cc(-c4ccccc4)nn3)O2)cc1	1%	-5%
CCS(CC)=NS(=O)(=O)c1ccc(NC(C)=O)cc1	.	-1%
O=C(CN1C(=O)C2C3C=CC(C3)C2C1=O)Nc1ccc(S(=O)(=O)N2CCCCC2)cc1 (stereo unspecified)	-10%	-1%
Cc1nn(C)c(C)c1NC(=O)c1cc2nc(-c3ccco3)cc(C(F)(F)F)n2n1	-12%	-7%
O=C(N[C@H](Cc1cc(=O)[nH]c2ccccc12)C(=O)O)c1ccc(Cl)cc1	-12%	-8%
O=C(/C=C/c1ccccc1)Nc1ncn[nH]1	-21%	-10%
Cc1ccccc1OCC(=O)Nc1nc(C)c(C(=O)N(C)C)s1	-6%	-9%
CC(CNC(=O)C1CCN(S(=O)(=O)c2ccc3c(ccn3C)c2)CC1)c1ccccc1 (stereo unspecified)	-14%	-3%
O=C(Nc1ccccc1)c1nc[nH]c1C(=O)Nc1ccccc1F	i	-27%
COc1ccc(N(CC(=O)Nc2cc(Cl)ccc2OC)C2=NC3CS(=O)(=O)CC3S2)cc1 (stereo unspecified)	-6%	-6%
